CDC25B-CDK2 inh – human CDC25B-CDK2/CyclinA binding inhibition. z-score (test concentration not listed). 0.72% of 94,000 active. HTRF CDC25B-CDK2/CyclinA binding, anti-His/anti-Flag; stronger effect = higher value. AID 1259370. P30305+P24941;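 further: score is relative to mean and SD of negative controls; strong numbers were not always called active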
HIV TAR-Tat – HIV-1 TAR-Tat binding disruption. HIV-1 TAR RNA, Tat peptide displacement FRET; stronger effect = higher value. z-score (no concentration beside the values). 0.6% of 100,000 active;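 further: score is relative to mean and SD of negative controls; some compounds called inactive have numbers as strong as hits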
Starred values were filed as active, the others as inactive; . = no result given.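 How the source made its calls: active means z-score from 3 up in half or more of its runs; inactive means the rest.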

Below each SMILES – CDC25B-CDK2 inh, HIV TAR-Tat
1	Cn1c(=O)n(C)c2cc(NS(=O)(=O)C3=CC=C(Br)C3)ccc21
  -0.71, 1.9
2	O=C(NC1Cc2ccccc2C1)c1ccc(Cl)cc1
  -0.7, .
3	CCc1c(C)nc2ncnn2c1Nc1cccc(C)c1
  ., 1.1
4	CCOc1cc(C(Nc2cc(C)ccn2)c2ccc3cccnc3c2O)ccc1OC (centres undefined)
  -0.19, 2.4
5	Cn1c(C2=C(O)CN(c3cccc(Cl)c3)C2=N)nc2ccccc21
  -1.3, 1.6
6	O=C(O)CNS(=O)(=O)c1ccc([N+](=O)[O-])cc1I
  -1.9, .
7	O=c1[nH]c2cc3c(cc2c(=O)n1CCc1nc(-c2cccc(F)c2)no1)OCO3
  ., -1.1
8	Cc1nnc2sc(-c3cccs3)nn12
  -1, 0.97
9	O=C(Nc1ccccc1)N(Cc1cccs1)c1ccccn1
  0.73, 1.7
10	C=CCNc1nc(Nc2ccc(C)cc2C)c2cnn(C)c2n1
  ., 0.86
11	CCN1/C(=C(/O)c2ccccc2)C(=O)c2ccccc2S1(=O)=O
  -1.2, -0.1
12	C=C(C)Cn1c(C2CC(=O)N(c3ccc(OC)cc3)C2)nc2ccccc21 (centres undefined)
  0.66, 0.52
13	CCc1noc2ncnc(N3CCCC(C(=O)NCc4ccc(C)o4)C3)c12 (centres undefined)
  ., 0.33
14	CC1=C(C(=O)NCCCN2C(C)CCCC2C)C2(CCCCC2)OC1=O (centres undefined)
  ., 1.5
15	O=c1c2cccnc2n(Cc2ccc(F)cc2)c(=O)n1Cc1ccc(F)cc1
  -1.4, 0.61
16	O=C(c1ccc(F)cc1)N1CCN(c2nc3cc(Br)ccc3n3cccc23)CC1
  -2.7, -1.1
17	CCCCC(=O)Nc1ccccc1SCc1cc(=O)n2nc(C)sc2n1
  ., 0.66
18	Cc1nc2sc(C(c3cccs3)N3CCC4(CC3)OCCO4)c(O)n2n1 (centres undefined)
  0.01, .
19	COc1ccc(NC(=O)N2CCN3CCCCC3C2)cc1OC (centres undefined)
  ., 1.2
20	CNC(=O)c1c(NC(=O)c2ccc(OC)cc2)sc2c1CCC2
  ., -0.55
21	O=C(CSc1nccn1Cc1ccc2c(c1)OCO2)Nc1ccc2c(c1)OCO2
  ., 0.63
22	O=C(NCc1cccnc1)c1cc(-c2cccnc2)nc2ccc(Cl)cc12
  ., 0.83
23	CC1(C)CC(=O)c2cc(NC(=O)c3ccccc3)c(=O)oc2C1
  1.1, 0.11
24	COc1ccc(CCN[C@H]2CS(=O)(=O)C[C@@H]2S(=O)(=O)c2ccc(F)c(C)c2)cc1OC
  0.34, 0.16
25	CC(C)(C)c1ccc(S(=O)(=O)Nc2ccc3[nH]c(=O)[nH]c3c2)cc1
  -1.8, -0.05
26	O=C(Nc1ccccc1Br)N1CCn2cccc2C1Cc1ccccc1 (centres undefined)
  ., -1.9
27	CCOC(=O)N1CCN(c2c(NC3CCCC3)c(=O)c2=O)CC1
  -1.7, -0.27
28	CCOc1ccc(-c2cc(OC(=O)c3ccco3)cc3sc(=O)oc23)cc1
  -1.2, -0.48
29	O=S(=O)(NC1CCCCC1)c1ccc2c(c1)CCN2
  ., 1.3
30	O=C(Nc1ccc(O)cc1)c1cc2nc3c(c(C(F)(F)F)n2n1)CCc1ccccc1-3
  -1.6, -0.55

Record cards, from the list above. Order of values: CDC25B-CDK2 inh	HIV TAR-Tat
Results for O=C(CSc1nccn1Cc1ccc2c(c1)OCO2)Nc1ccc2c(c1)OCO2 : .	0.63
Results for O=c1c2cccnc2n(Cc2ccc(F)cc2)c(=O)n1Cc1ccc(F)cc1 : -1.4	0.61

Additional results:
Below each SMILES – CDC25B-CDK2 inh, HIV TAR-Tat
31	O=C(Nc1ccc(F)cc1)c1cccs1
  ., 0.91
32	O=C(CCN1CCCCC1)c1ccc2c(c1)OCCCO2
  -2.8, .
33	CCOC(=O)c1ccc(Cc2sc(C(=O)c3ccc(Br)cc3)c(N)c2C#N)cc1
  2.5, .
34	CC(=O)N1CCOc2ccc(S(=O)(=O)N3CCCC(C)C3)cc21 (centres undefined)
  0.17, 0.89
35	O=C(NCc1ccc2c(c1)OCO2)c1cnc2sc(N3CCOCC3)nn2c1=O
  ., 1.1
36	CN(C)/C=C/C(=O)c1ccccn1
  -1.6, .
37	C=CCOc1ccc(/C(O)=C2\C(=O)C(=O)N(CCN3CCOCC3)C2c2ccc(Cl)cc2)cc1C (centres undefined)
  1.4, 0.27
38	Cc1ccc(SCc2cc(=O)n3[nH]c(C)c(-c4ccc(F)cc4)c3n2)cc1
  -1.1, -5
39	CC(C)OCCCN1C(=O)c2[nH]nc(-c3ccccc3O)c2C1c1ccc(Br)cc1 (centres undefined)
  -1.8, 0.57
40	CCc1cc2c3c([nH]c2cc1S(=O)(=O)NCC1CCCO1)CCCC3=O (centres undefined)
  ., 0.08
41	c1ccc(Nc2ncnc3sc4c(c23)CCCC4)cc1
  -1.3, 3.7
42	CCSCCOC(=O)C1=C(C)NC2=C(C(=O)CCC2)C1c1cccc(F)c1 (centres undefined)
  -1.9, 1.9
43	CC(C)CC(=O)Nc1nnc(SCc2nc3ccccc3[nH]c2=O)s1
  ., -4.3
44	CCCc1nc(-c2cc3ccccc3nc2OC)no1
  -2.5, 0.88
45	COC(=O)c1sc2ccccc2c1S(=O)(=O)N1CCC(C)CC1
  ., 0.6
46	COc1ccc(N2CCN(C(c3cccs3)C(C)NS(=O)(=O)c3ccccc3)CC2)cc1 (centres undefined)
  -2.2, .
47	CC(C)CSc1nc2n(n1)C(c1ccc(N(C)C)cc1)C1=C(CCCC1=O)N2 (centres undefined)
  0.7, 0.58
48	Cc1cccc(C2C3=C(CC(C)(C)CC3=O)N=C3c4ccccc4C(=O)C32)c1 (centres undefined)
  -0.08, -1.8
49	Cc1c(C)n(-c2cccc(Cl)c2)c2ncnc(Cl)c12
  -0.46, -0.93
50	CC(C)(C)NC(=O)NCc1ccncc1
  -0.14, .
51	COCCNC(=O)c1cnn2c1NC(c1ccc(Br)cc1)CC2C(F)(F)F (centres undefined)
  -0.62, 0.69
52	Cc1cccn2c(=O)cc(COc3ccccc3NS(=O)(=O)c3ccc(Cl)cc3)nc12
  ., 0.3
53	CCC(C)NC(=O)CSC1=Nc2ccccc2C2=NC(c3ccccc3)C(=O)N12 (centres undefined)
  -0.92, .
54	CCOC(=O)c1cnc2c(-c3ccc(Cl)cc3)c(C)nn2c1C
  0.36, .
55	C=CCNc1nc(N)c([N+](=O)[O-])c(Nc2cccc(C)c2)n1
  ., 0.89
56	CSc1cccc(NS(=O)(=O)c2ccc3c(c2)n(C)c(=O)c(=O)n3C)c1
  -2.9, -1.6
57	N#C/C(=C\c1cccnc1)C(N)=S
  0.44, .
58	CCN1CCc2c(sc(-n3cccc3)c2CNC(=O)Nc2cccc(Br)c2)C1
  ., -7.2
59	CC(C(=O)NC1CCCCC1)n1ncn2c(cc3occc32)c1=O (centres undefined)
  -0.07, -0.24
60	C=CCN1C(=O)C2C(C(=O)Nc3cccc(SC)c3)C3C=CC2(O3)C1C(=O)NC1CCCCC1 (centres undefined)
  ., -0.65

An excerpt of these results, field by field.
56. CSc1cccc(NS(=O)(=O)c2ccc3c(c2)n(C)c(=O)c(=O)n3C)c1
  CDC25B-CDK2 inh: -2.9; HIV TAR-Tat: -1.6

57. N#C/C(=C\c1cccnc1)C(N)=S
  CDC25B-CDK2 inh: 0.44; HIV TAR-Tat: .

58. CCN1CCc2c(sc(-n3cccc3)c2CNC(=O)Nc2cccc(Br)c2)C1
  CDC25B-CDK2 inh: .; HIV TAR-Tat: -7.2

59. CC(C(=O)NC1CCCCC1)n1ncn2c(cc3occc32)c1=O (centres undefined)
  CDC25B-CDK2 inh: -0.07; HIV TAR-Tat: -0.24

Next results
Below each SMILES – CDC25B-CDK2 inh, HIV TAR-Tat
61	Cc1ccc(Nc2nc3ccccc3n3cnnc23)c(C)c1
  0.65, 1.1
62	O=C(Nc1ccc(OCc2ccccc2)cc1)NC1Cc2ccccc2C1
  -0.99, .
63	CCN1C(=O)Cc2cc(NS(=O)(=O)c3c(C)cc(C)cc3C)ccc21
  ., 2
64	O=C1CSc2ccc(C(=O)NC3CCCc4ccccc43)cc2N1 (centres undefined)
  ., 1.2
65	O=C(Nc1nc2nc(-c3ccccc3)cc(=O)n2[nH]1)c1ccc(Cl)cc1
  1.5, 2
66	CC1CCN(c2ccc3nnc(CCC(=O)NC(C)C)n3n2)CC1
  ., 0
67	CC1CC(C)CN(C(=O)c2nn(C)c3c2CSc2ccccc2-3)C1 (centres undefined)
  -1.4, 0.89
68	CN(C)c1nc(=S)ss1
  0.54, .
69	COC(=O)Cn1c2cc(OC)c(OC)cc2c2nc(=O)cc(C)n21
  -1.1, 0.77
70	O=C(Nc1ccc(F)cc1)C1CCN(c2ccc(-c3cccs3)nn2)CC1
  ., -0.34
71	O=C(NNC1=NCCN1Cc1ccccc1)c1cccc(C(F)(F)F)c1
  -1.6, .
72	O=C(Oc1cccc2cccnc12)c1ccc2c(c1)-c1ccccc1C2=O
  0.6, 0.1
73	CCOC(=O)c1cc(-c2cc(-c3ccccn3)nc3ccccc23)n[nH]1
  -0.76, -0.58
74	COc1ccc(OCC(=O)OCc2cc(=O)n3nc(CC(C)C)sc3n2)cc1
  ., 0.09
75	Fc1ccccc1Nc1ncc2c(n1)CCN(Cc1ccc(Br)cc1)C2
  ., 1.2
76	O=C(Nc1cccc(Cl)c1)NC1COc2ccccc2C1 (centres undefined)
  ., 0.83
77	COC(=O)c1c(NC(=O)c2cc(=O)c3ccccc3o2)sc2c1CCCC2
  -1.2, -0.45
78	Cn1sc(=O)c2ccc(S(=O)(=O)NCCc3ccncc3)cc21
  -2.2, .
79	CCc1nnc2sc(-c3ccccc3F)nn12
  -1.2, 1.9
80	Cc1cc(C)cc(NC(=O)CSCc2cc(=O)n3[nH]cnc3n2)c1
  ., 1.8
81	COc1ccc(-c2csc3ncnc(NCc4cccs4)c23)cc1
  ., 0.06
82	O=C(CN1C(=O)C2CCCCC2C1=O)N1CCN(Cc2ccc3c(c2)OCO3)CC1 (centres undefined)
  0.27, 0.52
83	COCCNC(=O)CSc1nc(-c2ccco2)nc2cc(=O)[nH]n12
  ., 0.14
84	O=C(Nc1cccc(F)c1)c1cnn(-c2ccccc2)c1-n1cccc1
  -1.6, -0.3
85	Cc1csc2nc(CSc3ccc(Cl)cc3)cc(=O)n12
  -1.7, -1.1
86	CCCN(Cc1cccs1)C(=O)Nc1ccc(Br)cc1
  -0.63, -2.7
87	CC1(C)CC(=O)C2=C(C1)OC(N)=C(C#N)C2c1cccc(OC(=O)c2ccco2)c1 (centres undefined)
  -1.3, .
88	Cc1cc(C)n(-c2nc3ccccc3nc2N2CCN(c3cccc(C)c3C)CC2)n1
  -1.5, -2.4
89	Cc1nc2sc(C(c3cccs3)N3CCOCC3)c(O)n2n1 (centres undefined)
  -0.02, .
90	CCCc1cc(=O)n2nc(N(C)CC(=O)NCc3ccco3)sc2n1
  0.03, 2.2
91	CC(C)c1nc2sc3c(NCCO)ncnc3c2c2c1COC(C)(C)C2
  -0.8, -0.49
92	O=C(CSc1ncnc2sc3c(c12)CCCC3)N1CCOCC1
  -0.37, .
93	Cc1ccccc1-n1c(=O)c2ccccc2n2c(=O)[nH]nc12
  0.08, 0.58
94	Brc1ccc(-c2cn3ccsc3n2)cc1
  -1, 0.36
95	O=C(c1sc2cc(Cl)ccc2c1Cl)N1CCCCC1
  0.11, 2.5
96	COCCNC(=O)c1cnc2sc(N3CCCCC3)nn2c1=O
  ., 1.6
97	O=S(=O)(Nc1ccc2c(c1)OCO2)c1ccc(-c2cnc(C3CC3)o2)cc1
  ., 0.33
98	Cc1nn(-c2ccccc2)c2c1-c1sc(C(=O)N3CCC(N4CCCCC4)CC3)cc1CC2
  ., 0.21
99	Nc1nonc1-c1nc2ccccc2n1Cc1ccc(Br)cc1
  -0.86, 1.9
100	CCOC(=O)c1ccc(S(N)(=O)=O)o1
  -1.7, 3.2
101	Cc1cc(C)c(NC2=NC(CO)(CO)CS2)c(C)c1
  -0.46, .
102	COc1ccc(Nc2nc(=O)[nH]nc2C)cc1
  -1.9, .
103	CC(C)NC(=O)c1ccc2c(c1)ncn2CCNC(=O)NC1CCCCC1
  ., 0.99
104	CC1C(=O)Nc2ccc(S(=O)(=O)N3c4ccccc4CC3C)cc2NC1=O (centres undefined)
  -0.57, 1.5
105	CC(=O)Nc1ccc2nc(SCc3cc(=O)n4nc(CC(C)C)sc4n3)sc2c1
  ., 0.73
106	CCOC(=O)C1=C(C)NC2=C(C(=O)C(C(=O)OC)C(C)C2)C1c1ccc(Cl)c(F)c1 (centres undefined)
  -1.9, 2
107	O=C(NCc1ccco1)c1noc2c1CCc1ccccc1-2
  2, .
108	Nc1ccccc1C(=O)NCc1ccncc1
  -2.3, .
109	Cc1[nH]c(C(=O)N2CCC(CC(=O)N3CCN(C(=O)c4ccco4)CC3)CC2)c(C)c1C
  ., 0.58
110	COc1cccc(Nc2nc(C)c([N+](=O)[O-])c(Nc3cccc(OC)c3)n2)c1
  -2.4, 2.8
111	COC(=O)CNC(=O)c1ccncc1Br
  -7.4, .
112	C=CCc1ccccc1OCc1cccc(C(=O)O)c1
  -1.9, -0.7
113	CC1CCC(C(C)C)C(OCC(O)CN2CCN(c3ccccc3)CC2)C1 (centres undefined)
  -3.7, 0.8
114	CC(C)OCCCNS(=O)(=O)c1ccc2c(c1)C(C)(C)C(=O)N2C
  ., 2.4
115	COc1ccc(S(=O)(=O)NCC(c2ccc(N(C)C)cc2)N(C)C)cc1 (centres undefined)
  ., 1.6
116	CCc1ccc(N2C(=O)N(CC(=O)C(C)(C)C)c3ccccc3S2(=O)=O)cc1
  ., 0.12
117	CC(C)c1nc2cc3sc(C(C)C)nc3cc2s1
  0.38, -0.18
118	CCCCNC(=O)CCC(=O)N1CCCn2nc(-c3cccn3C)cc21
  ., 1.1
119	COc1ccc(-c2nnc(SCC(=O)c3ccccc3)o2)cc1
  -0.24, 0.57
120	O=C(NNc1ccccc1C(F)(F)F)NS(=O)(=O)c1ccc(Cl)cc1
  -1.6, .
121	CC1CCn2c(nc3cc(C(=O)NC(C)C)ccc32)C1 (centres undefined)
  ., 1.3
122	N#CCS(=O)(=O)c1ccco1
  -2, .
123	COc1cnc(CSc2ccc(Cl)cc2)cc1OCC(=O)Nc1cc(C)on1
  ., 0.7

High-throughput results (PubChem)
